D2 PAM = human D2 receptor positive allosteric modulation | DiscoveRx D2 beta-arrestin cells, luminescence, 90 min; 100% = 57 uM dopamine signal | P14416 | 0.23% of 360,000 active | potentiation, % (concentration not given with the values); active = potentiation of 50% or more; inconclusive = 30% to 50%; inactive = 30% or less;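 further: compound concentration not given in the record; tested on top of an EC20 dose of dopamine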
Target sequence (P14416 whole entry, looked up): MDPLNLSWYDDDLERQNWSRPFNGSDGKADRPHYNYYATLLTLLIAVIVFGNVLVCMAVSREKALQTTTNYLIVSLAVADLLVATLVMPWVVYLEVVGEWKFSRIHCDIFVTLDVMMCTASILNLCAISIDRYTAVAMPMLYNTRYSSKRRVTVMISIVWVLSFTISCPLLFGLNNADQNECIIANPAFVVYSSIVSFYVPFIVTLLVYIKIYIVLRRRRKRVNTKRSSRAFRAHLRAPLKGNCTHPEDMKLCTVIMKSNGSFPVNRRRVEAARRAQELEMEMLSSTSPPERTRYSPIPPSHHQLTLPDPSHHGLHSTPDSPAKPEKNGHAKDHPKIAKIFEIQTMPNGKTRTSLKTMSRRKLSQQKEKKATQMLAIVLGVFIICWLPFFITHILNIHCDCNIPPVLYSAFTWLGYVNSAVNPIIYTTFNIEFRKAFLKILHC
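D2 cells co-treated with compound plus 50 nM dopamine (EC20) for 90 min at 37 deg C to detect potentiation. Beta-arrestin recruitment was read as enzyme-fragment luminescence after 1 h at ambient temperature. Full response was set by 57 uM dopamine.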
TRPML1 blocker = human mucolipin-1 channel inhibition | Q9GZU1 | 0.02% of 390,000 active | AID 624415 | TRPML1-inducible cells, Ca2+ dye fluorescence, FDSS; stronger effect = lower value; inhibition of EC80 agonist-evoked calcium signal | activity change, negative = inhibition, % (no concentration beside the values); in the data active means activity change below about -50%; inconclusive means about -30% to -50%; inactive means above about -30%;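 further: stimulus is agonist 54-4 at its EC80 concentration; on the % scale 0 is the no-effect control and ±100 the full control effect; compound concentration not given in the record; the text of the record puts the active cut at -80%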
Target sequence (Q9GZU1 whole entry, looked up): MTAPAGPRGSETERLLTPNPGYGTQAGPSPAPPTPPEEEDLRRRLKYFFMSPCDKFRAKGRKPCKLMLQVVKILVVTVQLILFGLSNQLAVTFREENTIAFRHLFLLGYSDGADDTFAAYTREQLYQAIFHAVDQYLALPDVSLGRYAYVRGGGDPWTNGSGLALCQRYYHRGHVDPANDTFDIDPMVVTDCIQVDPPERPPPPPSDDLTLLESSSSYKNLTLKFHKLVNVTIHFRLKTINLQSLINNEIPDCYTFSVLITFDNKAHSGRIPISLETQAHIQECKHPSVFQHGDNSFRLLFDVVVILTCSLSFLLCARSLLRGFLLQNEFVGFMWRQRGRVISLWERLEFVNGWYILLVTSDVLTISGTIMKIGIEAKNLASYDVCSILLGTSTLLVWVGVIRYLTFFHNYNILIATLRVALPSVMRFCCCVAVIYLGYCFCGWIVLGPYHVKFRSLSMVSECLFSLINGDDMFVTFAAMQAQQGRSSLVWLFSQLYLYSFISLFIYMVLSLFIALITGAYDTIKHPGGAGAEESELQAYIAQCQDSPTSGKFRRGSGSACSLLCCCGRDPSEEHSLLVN
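Tet-induced TRPML1-DL cells loaded with Ca8 no-wash calcium dye were read kinetically on FDSS. Compound addition was followed by EC80 agonist 54-4 (4 uM final); inhibition was read over 110 s.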
TRPML1 agonist = human mucolipin-1 channel agonism; TRPML1-expressing cells, Ca2+ dye fluorescence, FDSS; host cell line not named in the record; reference of the full effect not given here; activation, % (test concentration not listed); 0.12% of 410,000 active; in the data active = activation above about 50%; inconclusive = about 30% to 50%; inactive = below about 30%; further: 0% is about no effect; the text of the record puts the active cut at 80%
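Tetracycline-induced TRPML1-DL cells are seeded and incubated overnight before loading with a no-wash Ca2+ dye and quencher. Agonist activity is taken from the 110 s fluorescence read following compound pin-transfer on an FDSS, before EC80 54-4 challenge.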
Six1-Eya2 inh = blocks human Six1 binding to Eya2; Q15475+O00167; AlphaScreen GST-Six1/His-Eya2 binding, biochemical; stronger effect = lower value; control for the full effect not named in the record; activity change, % (no concentration beside the values); 0.56% of 360,000 active; AID 651725; in the data active = activity change below about -65%; inconclusive = about -30% to -65%; inactive = above about -30%; further: on the % scale 0 is the no-effect control and ±100 the full control effect; compound concentration not given in the record
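GST-Six1 + His-Eya2 (5X stock: 250/500 nM); Tris pH 8.0, 300 mM NaCl, 0.05% BSA, 0.02% Tween 20; GSH donor/Ni acceptor beads; 1 h 37 °C dark; AlphaScreen readout.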
CtBP-E1A blk = CtBP/E1A binding inhibition; AlphaScreen GST-E1A/His-CtBP binding, 1536-well; stronger effect = lower value; control for the full effect not named in the record; activity change, % (no concentration beside the values); 0.49% of 340,000 active; in the data active means activity change below about -65%; inconclusive means about -30% to -65%; inactive means above about -30%; further: on the % scale 0 is the no-effect control and ±100 the full control effect; compound concentration not given in the record
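GST-E1A and His-tagged CtBP (125 nM each as 5X stock) were preincubated with pin-transferred compound for 2 h at 37 °C in the dark, then glutathione donor and nickel acceptor beads were added for 1 h before AlphaScreen reading.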
TRPV1 PAM = human TRPV1 potentiation; Q8NER1; TRPV1-expressing cells, Fluo-8 calcium influx, capsaicin EC20 potentiation; host cell line not named in the record; control for the full effect not named in the record; potentiation, % at 8.33 µM; 0.02% of 320,000 active; active means potentiation above 80%; inconclusive means 30% to 80%; inactive means below 30%; further: 0% is about no effect
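TRPV1-expressing cells were cultured overnight at 35.5C and loaded with Fluo-8 calcium dye for 40 to 90 min at room temperature. After a 10 s baseline, compound was added and calcium influx was read kinetically for 3 min (ex 480/em 520 nm).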
Active calls of the source: *. Not a hit list (roughly 0.95% active in at least one column).

Screening CCc1cc(C(=O)Nc2ccc(OC)nc2)sc1C returned D2 PAM -11, TRPML1 blocker -9, TRPML1 agonist 4.5, Six1-Eya2 inh -4, CtBP-E1A blk -2 and TRPV1 PAM 18.
`NC(=O)c1nc(C(=O)N2CCN(c3ccccc3)CC2)c2ccccc2n1` gave D2 PAM -11, TRPML1 blocker 5, TRPML1 agonist -0.4, Six1-Eya2 inh 3, CtBP-E1A blk -28 and TRPV1 PAM 8.
For CCC1(c2ccc(F)cc2)NC(=O)N(CC(=O)NCc2ccc(C)cc2)C1=O (configuration not stated) the results were D2 PAM -8, TRPML1 blocker 12, TRPML1 agonist -1.4, Six1-Eya2 inh -1, CtBP-E1A blk -6 and TRPV1 PAM -1.
COc1ccc(CN(CC2CCCO2)C(=O)c2cc3ccccc3oc2=O)cc1 (configuration not stated) was read as D2 PAM 0, TRPML1 blocker -4, TRPML1 agonist 1.1, Six1-Eya2 inh 2 and TRPV1 PAM 3.
Screening N/C(=N\O)c1ccccc1-n1cccc1 returned D2 PAM 0, TRPML1 blocker 16, TRPML1 agonist -0.2, Six1-Eya2 inh 4, CtBP-E1A blk -1 and TRPV1 PAM -26.
Screening Cc1ccc(O)c(C(=O)c2cnc(/N=C(\N)N(C)C)nc2)c1 returned D2 PAM -3, TRPML1 blocker 1, TRPML1 agonist 9.5, Six1-Eya2 inh -4, CtBP-E1A blk 3 and TRPV1 PAM 2.
Screening Cc1nc2ccc([N+](=O)[O-])cc2c(=O)n1Cc1ccc(F)cc1 returned D2 PAM -2, TRPML1 blocker 21, TRPML1 agonist 0.8, Six1-Eya2 inh -19, CtBP-E1A blk 5 and TRPV1 PAM 5.
`Cc1cc(F)ccc1S(=O)(=O)N1CCCOC1CNC(=O)C(=O)NCCc1c[nH]c2ccccc12` (configuration not stated) gave D2 PAM 6, TRPML1 blocker -3, TRPML1 agonist -0.8, Six1-Eya2 inh -16, CtBP-E1A blk -8 and TRPV1 PAM -3.
For Cc1ccc(C(=O)NNCC(=O)Nc2ccc(Cl)cc2F)cc1 the results were D2 PAM -26, TRPML1 blocker 9, TRPML1 agonist -0.8 and Six1-Eya2 inh 8.
For Cc1cc(C)c2c(CN3CCCC3)cc(=O)oc2c1 the results were D2 PAM -13, TRPML1 blocker -7, TRPML1 agonist 2.2, Six1-Eya2 inh 12 and CtBP-E1A blk -17.
Screening COC(=O)c1ccc(N=NN2CCCCCC2)cc1 returned D2 PAM 2, TRPML1 blocker -1, TRPML1 agonist 1.5, Six1-Eya2 inh 8, CtBP-E1A blk 19 and TRPV1 PAM -8.
Screening O=C(CCCN1C(=O)/C(=C\c2ccccc2)SC1=S)Nc1ccccc1O returned D2 PAM -3, TRPML1 blocker -15, TRPML1 agonist 0.8, Six1-Eya2 inh -6, CtBP-E1A blk -18 and TRPV1 PAM 1.
CC(C)(C)OC(=O)N/N=C\c1ccc(OC(=O)c2cccs2)cc1 was read as D2 PAM -3, TRPML1 blocker -5, TRPML1 agonist 0.3, Six1-Eya2 inh -8, CtBP-E1A blk -4 and TRPV1 PAM 19.
CCN(CC)S(=O)(=O)c1cccc(-c2nnc(SCC(=O)NC3CCCCCCC3)n2N)c1 was read as D2 PAM -4, TRPML1 blocker 19, TRPML1 agonist -0.6, Six1-Eya2 inh 7, CtBP-E1A blk 4 and TRPV1 PAM -23.
For O=C(Nc1nccs1)c1nc(-c2ccccc2)n(-c2ccccc2)n1 the results were D2 PAM -13, TRPML1 blocker 9, TRPML1 agonist 0.2, Six1-Eya2 inh 0, CtBP-E1A blk -1 and TRPV1 PAM -22.
`CC(=O)N1c2c(cc(Br)cc2S(=O)(=O)N2CCN(C(=O)c3ccco3)CC2)CC1C` (configuration not stated) gave D2 PAM 2, TRPML1 blocker -2, TRPML1 agonist 0.3, Six1-Eya2 inh -10, CtBP-E1A blk -12 and TRPV1 PAM 0.
O=S(=O)(NCc1ccccc1)c1cnc[nH]1 was read as D2 PAM -12, TRPML1 blocker 1, TRPML1 agonist -0.3, Six1-Eya2 inh 7, CtBP-E1A blk 3 and TRPV1 PAM inconclusive.
`C=CCn1c(SCc2c(Cl)cccc2Cl)nnc1-c1cccnc1` gave D2 PAM -4, TRPML1 blocker 79, TRPML1 agonist 0.4, Six1-Eya2 inh 10, CtBP-E1A blk 12 and TRPV1 PAM -7.
For O=C(N/N=C/c1cc(Br)ccc1O)c1ccncc1 the results were D2 PAM -3, TRPML1 blocker -11, TRPML1 agonist 2.4, Six1-Eya2 inh -93*, CtBP-E1A blk -94* and TRPV1 PAM -35.
Clc1ccc(Sc2oc(/C=N/n3cnnc3)cc2Br)cc1 was read as D2 PAM 22, TRPML1 blocker -7, TRPML1 agonist 1.4, Six1-Eya2 inh 1, CtBP-E1A blk 6 and TRPV1 PAM inconclusive.

Next section; the last three above are carried over.
`C=CCn1c(SCc2c(Cl)cccc2Cl)nnc1-c1cccnc1` gave D2 PAM -4, TRPML1 blocker 79, TRPML1 agonist 0.4, Six1-Eya2 inh 10, CtBP-E1A blk 12 and TRPV1 PAM -7.
For O=C(N/N=C/c1cc(Br)ccc1O)c1ccncc1 the results were D2 PAM -3, TRPML1 blocker -11, TRPML1 agonist 2.4, Six1-Eya2 inh -93*, CtBP-E1A blk -94* and TRPV1 PAM -35.
Clc1ccc(Sc2oc(/C=N/n3cnnc3)cc2Br)cc1 was read as D2 PAM 22, TRPML1 blocker -7, TRPML1 agonist 1.4, Six1-Eya2 inh 1, CtBP-E1A blk 6 and TRPV1 PAM inconclusive.
Screening NC(=O)COC(=O)[C@H](Cc1c[nH]c2ccccc12)NC(=O)c1ccc(F)cc1 returned D2 PAM -2, TRPML1 blocker 1, TRPML1 agonist -0.4, Six1-Eya2 inh -4, CtBP-E1A blk 5 and TRPV1 PAM -15.
Screening COc1cccc(NC(=O)NC2(C(F)(F)F)Oc3ccccc3O2)c1 returned D2 PAM -6, TRPML1 blocker -16, TRPML1 agonist 1.0, Six1-Eya2 inh -2, CtBP-E1A blk -15 and TRPV1 PAM -38.
O=C(CCNS(=O)(=O)c1ccc2nsnc2c1)N1CCN(c2ccncc2)CC1 was read as D2 PAM -8, TRPML1 blocker -8, TRPML1 agonist -0.9, Six1-Eya2 inh 3 and CtBP-E1A blk -4.
`CCn1c(CSc2nc(C)cs2)nc2cc(S(=O)(=O)N(C)C)ccc21` gave D2 PAM 8, TRPML1 blocker -21, TRPML1 agonist 2.3, Six1-Eya2 inh -7, CtBP-E1A blk 2 and TRPV1 PAM -4.
Screening Cc1ccccc1N=C1Nc2ccccc2CS1 returned D2 PAM -15, TRPML1 blocker 0, TRPML1 agonist 2.6, Six1-Eya2 inh 5, CtBP-E1A blk -1 and TRPV1 PAM 0.
Screening Cn1c(=O)n(Cc2ccccc2F)c2ccccc21 returned D2 PAM -31, TRPML1 blocker -12, TRPML1 agonist 1.4, Six1-Eya2 inh 0, CtBP-E1A blk 6 and TRPV1 PAM -3.
For Cc1cc(NC(=O)CSc2nc3ccsc3c(=O)n2NC(=O)c2ccccc2)no1 the results were D2 PAM -17, TRPML1 blocker 7, TRPML1 agonist 0.7, Six1-Eya2 inh -7, CtBP-E1A blk -17 and TRPV1 PAM 5.
Cc1oc(-c2ccc3c(c2)OCCO3)cc1C(=O)NC(CCC(=O)O)C(=O)O (configuration not stated) was read as D2 PAM -6, TRPML1 blocker -4, TRPML1 agonist -0.6, Six1-Eya2 inh 0, CtBP-E1A blk 4 and TRPV1 PAM -7.
Screening COc1ccc(CN(C)C[C@H]2Oc3c(NC(=O)Nc4ccccc4)cccc3C(=O)N([C@H](C)CO)C[C@@H]2C)cc1 returned D2 PAM -12, TRPML1 blocker -6, TRPML1 agonist -1.0, Six1-Eya2 inh -5 and CtBP-E1A blk -1.
For CC(C)c1nc(SCC(=O)Nc2nc3c(s2)CCCC3)c2ccccc2n1 the results were D2 PAM 0, TRPML1 blocker 4, TRPML1 agonist 0.6, Six1-Eya2 inh -8, CtBP-E1A blk 45 and TRPV1 PAM inconclusive.
O=C(CC1C(=O)N(c2ccccc2)C(=S)N1c1ccccc1)c1ccc(Br)cc1 (configuration not stated) was read as D2 PAM -12, TRPML1 blocker 29, TRPML1 agonist 3.0, Six1-Eya2 inh 1, CtBP-E1A blk -7 and TRPV1 PAM 7.
`CN(CC(=O)Nc1ccc(Cl)cc1)C(=O)C1CCCC1` gave D2 PAM -5, TRPML1 blocker 11, TRPML1 agonist 3.4, Six1-Eya2 inh 5, CtBP-E1A blk -9 and TRPV1 PAM -9.
C[N+]1(CC(=O)Nc2ccc(F)cc2)CCN(C(=O)c2ccco2)CC1 was read as D2 PAM -8, TRPML1 blocker 4, TRPML1 agonist -0.1, Six1-Eya2 inh -1, CtBP-E1A blk -1 and TRPV1 PAM -12.
For CC(Cc1ccccc1)C(=O)Nc1ccccc1 (configuration not stated) the results were D2 PAM -14, TRPML1 blocker 4, TRPML1 agonist -0.8, Six1-Eya2 inh 0, CtBP-E1A blk -2 and TRPV1 PAM inconclusive.
Screening O=C(N/C(=C/c1ccc(F)cc1)C(=O)N1CCOCC1)c1ccco1 returned D2 PAM -1, TRPML1 blocker 4, TRPML1 agonist -0.3, Six1-Eya2 inh 5 and CtBP-E1A blk 8.
Screening COc1ccc2sc(-c3ccc(N(C)C)cc3)c(C#CCCO)c2c1 returned D2 PAM -7, TRPML1 blocker 5, TRPML1 agonist 1.5, Six1-Eya2 inh 1, CtBP-E1A blk 15 and TRPV1 PAM -12.
NNC(=O)c1ccc(N2CCCCCC2)c([N+](=O)[O-])c1 was read as D2 PAM -36, TRPML1 blocker -2, TRPML1 agonist -1.4, Six1-Eya2 inh -9, CtBP-E1A blk -6 and TRPV1 PAM -6.
COc1ccc(CN(C)C2CCCCC2)c(C)c1C was read as D2 PAM -28, TRPML1 blocker 9, TRPML1 agonist 0.5, Six1-Eya2 inh 2, CtBP-E1A blk 4 and TRPV1 PAM 5.
For Cc1ccc(C2CC(C(F)F)n3ncc(C(=O)Nc4c(C)nn(Cc5c(F)cccc5Cl)c4C)c3N2)cc1 (configuration not stated) the results were D2 PAM -2, TRPML1 blocker -2, TRPML1 agonist 3.3, Six1-Eya2 inh -20, CtBP-E1A blk -18 and TRPV1 PAM 2.
Screening CC(C)CCNC(=O)COC(=O)/C=C/c1ccc2ccccc2n1 returned D2 PAM -15, TRPML1 blocker -5, TRPML1 agonist -0.2, Six1-Eya2 inh 1, CtBP-E1A blk -1 and TRPV1 PAM 27.
`O=C(O)Cc1sc(NCCc2ccccc2)nc1-c1ccc(F)cc1` gave D2 PAM -8, TRPML1 blocker 20, TRPML1 agonist 0.1, Six1-Eya2 inh -2, CtBP-E1A blk 2 and TRPV1 PAM 0.
CC(C)CC(=O)c1c[nH]c(C(=O)O)c1 was read as D2 PAM -6, TRPML1 blocker -7, TRPML1 agonist 0.4, Six1-Eya2 inh 8, CtBP-E1A blk 24 and TRPV1 PAM 0.
`CCC(C)c1ccc(C(CC)NC(=O)C2CCCO2)cc1` (configuration not stated) gave D2 PAM 1, TRPML1 blocker 2, TRPML1 agonist 0.6, Six1-Eya2 inh 2, CtBP-E1A blk -4 and TRPV1 PAM -6.

From PubChem BioAssay
